Six1-Eya2 inh: qHTS Assay for Inhibitors of the Six1/Eya2 Interaction; activity change, % (test concentration not listed); Homeobox protein SIX1 (Homo sapiens) + Protein phosphatase EYA2 (Homo sapiens), …; 0.56% of 360,000 active; AID 651725, 2012; AlphaScreen GST-Six1/His-Eya2 binding, biochemical; hits give low values; control for the full effect not named in the record; in the data active = activity change below about -65%; inconclusive = about -30% to -65%; inactive = above about -30%; further: on the % scale 0 is the no-effect control and ±100 the full control effect; compound concentration not given in the record
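GST-Six1 + His-Eya2 (5X stock: 250/500 nM); Tris pH 8.0, 300 mM NaCl, 0.05% BSA, 0.02% Tween 20; GSH donor/Ni acceptor beads; 1 h 37 °C dark; AlphaScreen readout.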
D2 potentiator: Beta-Arrestin HTS for Positive Allosteric Modulators of the Human D2 Dopamine Receptor: Potentiators. D(2) dopamine receptor (Homo sapiens), P14416. DiscoveRx D2 beta-arrestin cells, luminescence, 90 min; 100% = 57 uM dopamine signal. potentiation, % (concentration not given with the values). 0.23% of 360,000 active; active = potentiation of 50% or more; inconclusive = 30% to 50%; inactive = 30% or less;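 further: compound concentration not given in the record; tested on top of an EC20 dose of dopamine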
Target sequence (P14416 whole entry, looked up): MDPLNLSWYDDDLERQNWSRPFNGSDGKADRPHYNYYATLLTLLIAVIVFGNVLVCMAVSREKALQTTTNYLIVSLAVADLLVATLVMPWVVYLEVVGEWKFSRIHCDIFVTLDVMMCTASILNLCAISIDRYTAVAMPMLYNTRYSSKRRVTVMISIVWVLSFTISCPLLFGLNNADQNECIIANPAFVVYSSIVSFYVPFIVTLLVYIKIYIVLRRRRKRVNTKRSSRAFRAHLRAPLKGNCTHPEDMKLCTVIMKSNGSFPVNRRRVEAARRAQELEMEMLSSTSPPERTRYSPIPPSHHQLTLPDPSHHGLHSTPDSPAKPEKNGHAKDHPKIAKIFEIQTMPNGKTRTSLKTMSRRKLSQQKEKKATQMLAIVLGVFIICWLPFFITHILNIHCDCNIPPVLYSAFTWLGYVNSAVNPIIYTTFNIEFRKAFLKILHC
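D2 cells co-treated with compound plus 50 nM dopamine (EC20) for 90 min at 37 deg C to detect potentiation. Beta-arrestin recruitment was read as enzyme-fragment luminescence after 1 h at ambient temperature. Full response was set by 57 uM dopamine.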
D2 agonist: Beta-Arrestin HTS for Positive Allosteric Modulators of the Human D2 Dopamine Receptor: Agonists. D(2) dopamine receptor (Homo sapiens), P14416. DiscoveRx PathHunter D2 beta-arrestin, luminescence, 90 min; 100% = 57 uM dopamine signal. activation, % (no concentration beside the values). 0.084% of 360,000 active. AID 624465, 2012; in the data active = activation above about 40%; inconclusive = about 15% to 40%; inactive = below about 15%; further: compound concentration not given in the record; the text of the record calls up to 30% inactive
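DiscoveRx PathHunter D2 beta-arrestin cells (2,100/well) attached overnight, then compound-stimulated 90 min at 37 C in HBSS/10 mM HEPES/0.1% Tween-20 buffer; beta-galactosidase complementation read by luminescence after 1 h at ambient temperature. Dopamine 57 uM final (EC100) as control.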
gsp ag: qHTS for Agonist of gsp, the Etiologic Mutation Responsible for Fibrous Dysplasia/McCune-Albright Syndrome: qHTS | gsp mutant cells, cAMP HTRF, 30 min; control for the full effect not named in the record | 0.13% of 340,000 active | Potency, µM (doses to about 76.9 µM), for inactives: top-dose activation (cAMP increase), actives largely listed as activators | AID 624287, 2012; active = well fitted activation curve with a large enough effect; inconclusive = small, poorly fitted or top-dose-only effect, or another doubt; inactive = no such curve, though single readings can be large or run the other way; cell line not stated here;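 further: phosphodiesterase inhibitor Ro 20-1724 added with compounds to block cAMP breakdown; potency means the concentration at half of the fitted maximal effect; nearly all actives have a fitted effect of over 60% in size; about a fifth of the inactives were tested at one dose only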
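Cells in DMEM/10% FBS with G418 were pretreated with compounds in DMSO plus […] (300 uM stock) for 30 min at 37C. cAMP was measured by HTRF (cAMP-d2 plus anti-cAMP antibody-K) after 30 min at room temperature.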
CtBP-E1A inh: qHTS Assay for Inhibitors of the CtBP/E1A Interaction | 0.49% of 340,000 active | CtBP / adenovirus E1A interaction (AlphaScreen) | AlphaScreen GST-E1A/His-CtBP binding, 1536-well; hits give low values; control for the full effect not named in the record | activity change, % (test concentration not listed); in the data active means activity change below about -65%; inconclusive means about -30% to -65%; inactive means above about -30%; further: on the % scale 0 is the no-effect control and ±100 the full control effect; compound concentration not given in the record
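AlphaScreen with 125 nM GST-E1A and 125 nM His-CtBP (5X stocks) in Tris pH 8.0, 300 mM NaCl, BSA, Tween 20, TCEP. Compounds preincubated 2 h at 37 deg C, then glutathione donor/nickel acceptor beads added for 1 h at 37 deg C in dark.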
gsp antagonist: qHTS for Antagonists of gsp, the Etiologic Mutation Responsible for Fibrous Dysplasia/McCune-Albright Syndrome: qHTS; gsp-mutant cells, cAMP HTRF, 30 min; control for the full effect not named in the record; Potency, µM (top dose mostly 76.9 µM), inactives show at the top dose activity change, negative = inhibition, most hits filed as inhibitors; 0.4% of 340,000 active; active = falling curve of any shape with a large fitted effect; inconclusive = falling curve, mostly with a smaller effect; inactive = flat or rising curve; cell line not stated here;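 further: intracellular cAMP measured with PDE inhibitor Ro 20-1724 present during compound exposure; potency means the concentration at half of the fitted maximal effect; on the % scale 0 is the no-effect control and ±100 the full control effect; nearly all actives have a fitted effect of over 65% in size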
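HTRF cAMP read-out (cAMP-d2 plus anti-cAMP antibody-K in lysis buffer, 30 min RT). Before lysis, cells are exposed to compounds with […] for 30 min at 37C in DPBS containing Ca/Mg, BSA and Tween 20.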
* hit, by the source's call; u = inconclusive; x = no result given; [ ] = another dose, or the depositor's remark.

SMILES	Six1-Eya2 inh	D2 potentiator	D2 agonist	gsp ag	CtBP-E1A inh	gsp antagonist
Cc1ccc2nc(SCC(=O)Nc3ccc4c(c3)OCO4)nc(=O)n2c1	5	0	-3.9	50%[15.4 µM]	-3	5%
COc1cc2c(cc1OC)CC1(CCCCC1)N=C2	-1	0	0.9	9%[15.4 µM]	-12	13%
COc1ccccc1NC(=O)C1=C(C)Nc2nnnn2C1c1cc(Br)ccc1OC (centres undefined)	3	-5	1.4	15%	-12	7%
Cn1c2c(c(=O)n(C)c1=O)C(c1ccc(Br)cc1)Nc1ccccc1O2 (centres undefined)	-4	-8	2.2	19%	-3	12%
CCCCn1c(N)c(N(CCOC)C(=O)c2ccc3c(c2)C(=O)N(c2cc(C)ccc2C)C3=O)c(=O)[nH]c1=O	-1	-16	0.0	u	1	6%
Cc1nn(Cc2c(Cl)cccc2Cl)c(C)c1NC(=O)c1sc2ccccc2c1Cl	3	10	-1.6	-17%	-2	18%
O=C(CCCC(=O)OCC(Cl)=C(Cl)Cl)Nc1ccccc1F	0	-4	-0.5	6%[15.4 µM]	8	3%
Cc1noc(C)c1CSCC(=O)Nc1nc2ccc(Oc3ccccc3)cc2s1	-8	-7	-5.0	5%	-3	-3%
CC1(C)C(C=C(Cl)Cl)C1C(=O)Nc1ccc(S(=O)(=O)Nc2ncccn2)cc1 (centres undefined)	1	-7	-6.5	-5%[15.4 µM]	-10	-14%
COc1ccc(-c2csc(NC(C)c3nc4cc(Cl)c(Cl)cc4n3CCCO)n2)cc1 (centres undefined)	-19	-2	0.7	2%	x	-8%
CCO[C@H]1OC(C(=O)O)=C[C@@H](c2ccc(C(F)(F)F)cc2)[C@@H]1CCCO	-2	-7	-1.3	x	-12	6%
COC(=O)N(C)C[C@@H]1OCc2cnnn2CCCC(=O)N([C@H](C)CO)C[C@@H]1C	0	4	-7.3	-17%	5	x
CCOc1ccccc1NC1=C(OC)C(=O)C(Nc2ccccc2OCC)=C(OC)C1=O	-29	17	2.4	-3%	-3	-4%
O=C(Cn1c(=O)oc2ccccc21)Nc1ccc2c(c1)OCCO2	0	-25	-0.8	1%	-11	-1%
O=C1CC(N2CCN(Cc3ccccc3)CC2)C(=O)N1c1ccccc1 (centres undefined)	0	-6	0.2	-31%[inhibitor]	2	7%
NNC(=O)c1cc2ccccc2cc1O	4	15	-1.4	-17%	-4	1%
O=C(c1ccccc1)c1ccccc1C(=O)N1CCN(Cc2ccccc2F)CC1	5	-9	1.8	21%[15.4 µM]	1	-11%
O=C(Nc1ccc(S(=O)(=O)N2CCCCCC2)cc1)C1CCCO1 (centres undefined)	-8	16	0.4	5%	-4	4%
COc1ccc(C(=O)N2CCCCCCC2)cc1OC1CCN(C(C)C)CC1	4	-18	-1.0	28%	1	-9%
CC(C)C(=O)Nc1c(-c2cccs2)c(=O)c2ccccc2n1C	5	2	-0.2	-16%	10	11%

Arranged by value in gsp ag (rising): three of the compounds above.
SMILES	Six1-Eya2 inh	D2 potentiator	D2 agonist	gsp ag	CtBP-E1A inh	gsp antagonist
COC(=O)N(C)C[C@@H]1OCc2cnnn2CCCC(=O)N([C@H](C)CO)C[C@@H]1C	0	4	-7.3	-17%	5	x
CCOc1ccccc1NC1=C(OC)C(=O)C(Nc2ccccc2OCC)=C(OC)C1=O	-29	17	2.4	-3%	-3	-4%
COc1ccc(-c2csc(NC(C)c3nc4cc(Cl)c(Cl)cc4n3CCCO)n2)cc1 (centres undefined)	-19	-2	0.7	2%	x	-8%

Next part:
SMILES	Six1-Eya2 inh	D2 potentiator	D2 agonist	gsp ag	CtBP-E1A inh	gsp antagonist
CCCCCC(=O)N1C[C@@H](O)[C@H](n2cc(COC(=O)c3ccccc3)nn2)C[C@@H]1c1ccccc1	-9	-4	-0.8	-70%[inhibitor]	4	x
CCOc1cc(C)c(Cl)cc1S(=O)(=O)NCc1ccc2c(c1)OCO2	8	-4	-0.3	-22%	6	1%
O=C(C=Cc1ccc2c(c1)OCO2)OCC=Cc1ccc2c(c1)OCO2	10	-2	3.2	-32%[inhibitor]	13	6%
Cc1ccccc1NC(=O)CSc1ccncc1	-4	-3	-1.6	8%[15.4 µM]	1	0%
CCOC(=O)C1CCN(C(=O)CN(c2ccc3c(c2)OCO3)S(C)(=O)=O)CC1	1	-16	-2.3	12%	0	-3%
COc1ccc(-c2[nH]nc3c2C(c2ccccc2OC(=O)N2CCOCC2)C(C#N)=C(N)O3)cc1 (centres undefined)	0	-5	0.3	-3%	-3	-13%
COc1ccc(C(=O)Nc2cccc(-c3nnc(-c4ccco4)o3)c2)cc1	u	0	0.1	-2%	u	u
COc1c(C)cc(C(=O)C2CCCN(C(=O)c3cccc(-n4cccn4)c3)C2)cc1C (centres undefined)	1	-4	0.9	9%	1	-15%
COc1ccc(CCCc2n[nH]c(=S)o2)cc1	5	-6	2.7	-22%	8	-8%
C=CCNC(=O)C12CC3CC(C1)CC(C(=O)NCC=C)(C3)C2	-2	-3	-2.9	-16%	-2	14%
CCc1ccccc1N(CC(=O)N1CCc2ccccc2C1)S(C)(=O)=O	2	u	1.4	-87%[inhibitor]	x	-2%
CC(C)C[C@H]1CNC(=O)C(=O)N1CC1CCN(CCC(C)(C)C)CC1	3	-6	-7.2	x	-21	7%
COc1ccc(S(=O)(=O)CCC(=O)N2CC(=O)N(CCc3ccccc3)C(=O)C2)cc1	1	18	-1.6	-33%[inhibitor]	8	7%
COCC(=O)n1cc(C(=O)OC)c2ccccc21	4	-4	-3.3	-15%	4	-7%
COCCNC(=O)C1(C)CCN(C(=O)c2sc(-c3ccccc3)nc2C)C1 (centres undefined)	5	-1	-4.4	x	2	x
Cc1ccc2nc(-c3ccccc3)cc(C(=O)N3CCc4ccccc4C3)c2c1	-5	-6	2.2	7%	-6	-12%
Cc1ccccc1NC(=S)Nc1ccccn1	-24	-13	-7.1	-5%	x	-2%
COc1ccc(CCNC(=O)CSc2nc3[nH]ncc3c(=O)n2-c2ccccc2Br)cc1OC	1	-3	-4.2	-55%[inhibitor]	x	-2%
CCOc1ccc(NS(=O)(=O)c2ccc(C(=O)N3CCCC3)cc2)cc1	0	-1	-0.9	-22%[15.4 µM]	-6	-14%
CCCCCC(=O)Nc1cccc(C2=NOC3(C2)C[C@H](C(N)=O)N(C(=O)CCCCC)C3)c1 (some centres undefined)	-5	-1	1.8	-12%	0	7%
COc1cc2c(cc1NC(=O)COC(=O)[C@@H](NS(=O)(=O)c1cccc(Cl)c1)C(C)C)oc1ccccc12	-7	-14	-5.1	-5%	-2	-18%
Cc1cc(C)n(CC(=O)Nc2ccc([N+](=O)[O-])cc2)n1	3	71*	0.1	30%	x	7%
CCCNC(=O)c1nc(C)n(-c2ccc([N+](=O)[O-])cc2)n1	4	-8	-3.1	-3%[15.4 µM]	2	3%
COCCNC(=O)c1ccc(C2SCC(=O)N2Cc2ccco2)cc1 (centres undefined)	-3	-7	-3.0	-39%[inhibitor]	x	-10%
Cn1c(=O)n(C)c2cc(S(=O)(=O)O)ccc21	-1	15	-1.3	3%	3	8%
CCCCCCSc1ccc([C@H]2N[C@@](C)(C(=O)OC)[C@H]3C(=O)N(C)C(=O)[C@@H]23)cc1	-2	-19	-3.9	0%	-1	-31%
CCn1nnnc1NCc1ccc(Cl)cc1	1	-6	-0.5	0%[15.4 µM]	1	3%
CCc1c(C(=O)Nc2cc(C)cc(C)c2)[nH]c(C)c1C(C)=O	-8	-19	0.0	-7%	-2	35µM*
O=C(NCCSCc1ccccc1)c1cc(S(=O)(=O)N2CCOCC2)ccc1F	17	2	4.1	4%	24	1%
CCOC(=O)C1CCCN(C(=O)CN2C(=O)c3ccccc3S2(=O)=O)C1 (centres undefined)	1	7	-3.7	11%	x	0%
CC(C)(C)c1ccc(C(=O)NNC(=S)NCc2ccco2)cc1	-7	-2	2.0	-12%	2	0%
Cc1ccc(S(=O)(=O)N(CC(=O)Nc2cccnc2)c2cccc(Br)c2)cc1	-8	-23	-5.6	15%	-2	u
COCc1cc(C)n(CC(=O)Nc2c(C)cccc2C)c(=O)c1C#N	0	-10	-2.0	-14%	x	6%
CCc1nc2ccc(C(=O)NCC3CCCCC3)cn2c1N(C)C(=O)c1cccc(OC)c1	-4	1	-6.8	x	-2	x
Cc1cc(C(=O)CCC(=O)NNC(=O)c2ccccc2O)c(C)s1	-4	-7	-2.2	11%	u	-2%
COc1ccc(NC(=O)c2cc([N+](=O)[O-])nn2Cc2ccccc2)c(C)c1	0	3	-0.3	4%	-1	0%
Cc1cccc(/C(N)=N/OC(=O)CCc2ccccc2)c1	65	2	-1.4	-2%	9	-1%
CC1CCCCC12NC(=O)N(CC(=O)N1CCN(S(=O)(=O)c3ccc(Cl)s3)CC1)C2=O (centres undefined)	7	-7	-1.4	-4%	-29	x
O=C(Cc1cn(Cc2cccc(Cl)c2)c2ccccc12)N1CCCCCC1	-12	-9	-0.7	0%	-14	-17%
COC(=O)c1ccccc1NC(=S)NC(=O)c1cccc2ccccc12	-15	9	-1.4	-6%	-12	-10%
CCC(C(=O)NC1CCCC1)N(C(=O)Cn1nnc(-c2ccc(C)o2)n1)c1cnc2ccccc2c1 (centres undefined)	-1	-13	-0.8	19%	-3	7%
C=CCn1c(SCc2c(C(=O)OC)sc(N)c2C(=O)OC)nnc1-c1ccc(Br)cc1	-5	-10	-3.4	16%	-6	u
N#Cc1nc(Cc2ccccc2)oc1NCc1ccccc1	-9	-2	-1.4	-45%[inhibitor]	-10	3%
COc1cccc(N2C(=O)Nc3ccccc3C2(O)C(=O)NCc2ccc3c(c2)OCO3)c1 (centres undefined)	-2	-15	-2.9	-41%[inhibitor]	6	2%
S=C(Nc1ccccc1)c1ccccn1	-84*	-16	-5.2	-2%	-75*	-4%
COc1ccc(-c2csc(NC(=O)c3ccccc3C(=O)O)n2)cc1	-1	2	-0.9	-17%	x	5%
O=C(CCCn1c(SCc2cc(=O)n3cc(Cl)ccc3n2)nc2ccccc2c1=O)NCC1CCCO1 (centres undefined)	6	-11	-5.9	3%	x	13%
Cc1nc2ncnn2c(C)c1Cc1ccc(Cl)cc1F	7	-5	-5.0	-36%	1	8%
O=C(CSCc1nc2ccccc2[nH]1)Nc1ccccc1	8	-23	-2.6	-4%	0	6%
